Compound activity from PubChem.
Arbovirus anti: antivirals against arbovirus infection | arbovirus infection cell-based antiviral screen | inhibition, % at 10 µM | actives 0.37% (n = 200,000) | AID 1251;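 active means inhibition from about 30%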;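 further: bluetongue infection of BSR cells; cell survival read as ATP light after 72 h; 0% = infected wells without compound and 100% = uninfected wells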
YopH PTP inh: YopH (Yersinia) phosphatase inhibition | actives 0.16% (n = 140,000) | fluorescence Ex485/Em525 | inhibition, %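 (about 10 µM by stock and volumes)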 | AID 898;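 active means inhibition of 50% or more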;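 further: controls were vehicle for no effect and minimum signal wells for full effect; inactives centre near -20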
Mtb growth: M. tuberculosis H37Rv growth inhibitors, H37Rv strain (AID 1626) | M. tuberculosis H37Rv growth inhibition; higher % means a stronger effect | one-dose inhibition, % at 10 µM; IC50 in µM for titrated hits | actives 0.95% (n = 220,000);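 active means confirmed in a dose series; inconclusive means inhibition above 80% but not taken into the dose series; inactive means below 80% or under 30% at every dose of the series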;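 further: bacteria incubated seven days before Alamar blue readout; 0% = bacteria only wells and 100% = bacteria with antibiotic wells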
Mtb betalactam: beta-lactam sensitization of Mtb H37Rv | M. tuberculosis H37Rv growth with meropenem, percent inhibition; hits of this screen are not shown here | inhibition, % at 25 µM | actives 0.27% (n = 330,000) | AID 434955;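 active means about 74% or more and at least 40 points above the plate without the antibiotic, then above 30% in a dose series; inconclusive means first-round hits that could not be retested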;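 further: growth measured after seven days incubation then overnight dye step; 0% = bacteria only wells and 100% = bacteria with antibiotic; twin plates without the antibiotic show which effects depend on it; some results filed as inactive read as strong as hits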
RecA intein inh: blocks M. tuberculosis RecA intein splicing; actives 0.75% (n = 290,000); inhibition, %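 (about 9 µM by stock and volumes)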; AID 2221; cell-free RecA intein splicing, fluorescence; in the data active means inhibition above about 30%; inconclusive means no clear call, values can overlap the other calls;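 further: 0% = vehicle wells and 100% = reference inhibitor control wells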
Target sequence (P9WHJ3 whole entry, looked up): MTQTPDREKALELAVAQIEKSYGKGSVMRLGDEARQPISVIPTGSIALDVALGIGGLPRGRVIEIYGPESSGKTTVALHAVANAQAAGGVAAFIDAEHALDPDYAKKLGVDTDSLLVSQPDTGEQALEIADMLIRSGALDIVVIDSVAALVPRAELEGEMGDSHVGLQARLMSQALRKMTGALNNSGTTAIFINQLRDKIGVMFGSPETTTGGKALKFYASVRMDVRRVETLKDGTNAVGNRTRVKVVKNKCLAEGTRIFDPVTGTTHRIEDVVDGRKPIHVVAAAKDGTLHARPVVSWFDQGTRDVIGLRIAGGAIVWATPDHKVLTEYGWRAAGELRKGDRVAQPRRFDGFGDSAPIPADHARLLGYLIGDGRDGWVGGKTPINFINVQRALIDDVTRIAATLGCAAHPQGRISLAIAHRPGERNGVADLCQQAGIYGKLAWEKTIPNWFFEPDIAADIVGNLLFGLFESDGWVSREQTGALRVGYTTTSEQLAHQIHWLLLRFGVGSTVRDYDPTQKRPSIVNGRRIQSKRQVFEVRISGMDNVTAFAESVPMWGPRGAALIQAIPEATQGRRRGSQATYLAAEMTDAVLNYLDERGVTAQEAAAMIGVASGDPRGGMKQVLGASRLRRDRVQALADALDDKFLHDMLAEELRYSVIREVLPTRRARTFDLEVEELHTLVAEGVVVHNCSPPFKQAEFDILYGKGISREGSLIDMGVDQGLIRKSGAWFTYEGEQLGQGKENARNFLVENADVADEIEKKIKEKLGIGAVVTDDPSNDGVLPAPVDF
Arbovirus anti repeat: second read-out of Arbovirus anti, no call of its own (marks repeat the call); inhibition, %; measured here: 10K subset replicate screen; many hits read low in the repeat;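 first of two repeat runs on a subset; 0% = infected and 100% = uninfected wells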
* hit, by the source's call; ? = inconclusive; / = not tested or not shown. An excerpt; rates above refer to the full screens.

SMILES | Arbovirus anti | YopH PTP inh | Mtb growth | Mtb betalactam | RecA intein inh | others
COc1ccc(Br)cc1C(=O)Nc1cccc(NC(=O)c2ccco2)c1 | -3 | -35 | 4% | 35 | 5.1
CC(=O)c1cccc(NC(=O)CN(c2ccc(F)cc2)S(C)(=O)=O)c1 | -3 | -16 | -1% | -17 | -1.2 | Arbovirus anti repeat=2
O=C(Nc1ccccc1)N(Cc1ccc2c(c1)OCO2)Cc1nc2ccccc2c(=O)[nH]1 | -2 | -46 | 9% | 1 | -5.7
O=C(CCn1nnnc1CN1CCOCC1)N1CCC(c2cccc(Cl)c2)C1 (centres undefined) | / | / | / | -2 | -0.6
Cc1ccc(-c2nc3s/c(=C\c4ccco4)c(=O)n3n2)cc1 | 4 | -62 | -4% | 2 | 0.6
CCCn1c(N2CCN(CC(=O)NCc3cccs3)CC2)nc2ccccc21 | 3 | -18 | -9% | 8 | 1.7
CC(C)CCn1c(O)c(N=NC(=O)Cn2ccc(C(F)(F)F)n2)c2ccccc21 | 6 | -22 | -1% | -7 | 0.2
Cc1ccccc1-c1nc(CN(C)C(C)c2ccon2)c(C)o1 (centres undefined) | -10 | / | 3% | 0 | 39*
C[C@@H]1CC=C[C@H]2[C@H]1C(=O)N(Cc1ccccc1)[C@H]2c1ccc(F)c(-c2ccc(N(C)C)cc2)c1 | / | / | 1% | -2 | 4.8
COc1cccc(=O)c2c(C)n(-c3cc(C)cc(C)c3)c(C)c12 | -18 | 14 | -10% | 3 | 12
CCOc1ccc(/C(C)=N/N2C(=O)C(CC(=O)Nc3ccc(OC)cc3[N+](=O)[O-])SC2=Nc2cccc(C)c2C)cc1 (centres undefined) | -13 | -18 | -3% | 6 | -5.5
Cc1ccc(Nc2nc(N)nc(CSC(=S)N3CCOCC3)n2)c(C)c1 | 11 | -32 | 10% | 2 | -1.3
CCNc1nc(NCC)nc(Oc2ccc(OCc3ccccc3)nn2)n1 | -3 | / | -2% | -2 | -1.0
Cn1nc([N+](=O)[O-])nc1Sc1ccc(C(C)(C)C)cc1 | 3 | -35 | / | 100 | 3.9
O=C(NCC(c1ccco1)N1CCc2ccccc21)c1cccc(F)c1 (centres undefined) | / | / | / | -4 | 8.9
CN1CC2(C)OC(=O)C(Cl)=C2CC1c1ccccc1 (centres undefined) | 7 | -30 | -4% | 3 | 0.8
O/N=C1\CCCCc2ccccc21 | -1 | -16 | -4% | -3 | 11
O=C(Nc1ccc(C(=O)N2CCN(c3ccccc3F)CC2)cc1)C1=CSCCO1 | / | / | / | 1 | -7.9
COc1ccc(CCc2nnc(CCC(=O)N(C)Cc3ccncc3C)o2)cc1 | -1 | / | 0% | -9 | 3.0
CCCN1CCN(C(=O)CN2C(=O)COc3ccc(S(=O)(=O)N(CC)CC)cc32)CC1 | / | / | / | -6 | 2.6
Cc1ccc(N2CC(O)=C(c3nc4ccccc4c(=O)[nH]3)C2=N)cc1C | -14 | / | 1% | -2 | 0.9
CNS(=O)(=O)c1ccc(NC(=S)Nc2ccc3c(c2)OCO3)cc1 | 0 | / | 2% | -5 | -0.5
Cc1noc(C)c1CSCC(=O)Nc1ccc(OC(F)F)c(Cl)c1 | / | / | / | -7 | 0.4
C/C(=N\Nc1ccc([N+](=O)[O-])cc1[N+](=O)[O-])C(C)C(C)C (centres undefined) | 2 | / | 5% | 8 | 6.6
COc1ccc(C(O)c2nc3ccccc3n2C(C)C)cc1 (centres undefined) | / | / | 4% | 7 | 0.5
CCSc1nc2c(c(=O)[nH]1)C(c1ccccn1)C1=C(CC(C)(C)CC1=O)N2 (centres undefined) | 3 | -36 | -3% | 12 | -3.8
CN1CCN(CC(=O)Nc2cccc([N+](=O)[O-])c2)CC1 | 1 | / | -4% | 8 | /
CCOc1cc(NC(=O)c2cnccn2)c(OCC)cc1NC(=O)c1cccc(F)c1 | -1 | / | -7% | -2 | -3.4
O=C(Nc1ccc(F)cc1)c1cc(Cl)sc1Cl | 6 | / | / | -1 | -3.0
CCNc1nc(NCC)nc(N(n2cnnc2)S(=O)(=O)c2ccc(C)cc2)n1 | 3 | -20 | 9% | 0 | 2.9
O=C(O)CC(NCc1ccco1)C(=O)OCCCl (centres undefined) | -2 | / | -3% | 3 | 0.5
CCC(=O)N1CCc2cc(S(=O)(=O)N(CC)c3cccc(C)c3)ccc21 | -4 | -77 | / | -7 | -2.2
CCn1c(=O)n(CC)c2cc(S(=O)(=O)Nc3cc(C)cc(C)c3C#N)ccc21 | 2 | -17 | -5% | -7 | -8.9
COc1ccc(C2=NN(CCC(=O)NCc3cccs3)C(=O)CC2)cc1 | 6 | / | -2% | -8 | 1.4
COc1ccc(-c2nnnn2CCc2ccccc2)cc1 | -4 | -2 | 5% | 0 | 7.7
OC(COc1ccc2cc(Br)ccc2c1)CN1CCOCC1 (centres undefined) | -35 | -25 | -1% | 11 | 1.7
CCOC(=O)C1CCN(C(=O)CCC(=O)NCCc2ccc(Cl)cc2)CC1 | / | / | / | 4 | -1.5
CC1=C(C(=O)OCCNC(=O)c2ccccc2O)C(c2ccccc2[N+](=O)[O-])C(C(=O)OCC2CCCO2)=C(C)N1 (centres undefined) | -15 | -20 | 11% | 10 | 12
CC1CCCCN1CCNC(=O)Cn1nc(-c2ccccc2)ccc1=O (centres undefined) | 4 | -21 | -9% | -5 | -1.0
O=C1CC(N2CCC(c3nc4ccccc4o3)CC2)C(=O)N1c1ccc(F)cc1 (centres undefined) | 5 | / | -1% | 0 | -1.0

Reprinted at random: six records from the list.
SMILES | Arbovirus anti | YopH PTP inh | Mtb growth | Mtb betalactam | RecA intein inh | others
CCn1c(=O)n(CC)c2cc(S(=O)(=O)Nc3cc(C)cc(C)c3C#N)ccc21 | 2 | -17 | -5% | -7 | -8.9
Cc1ccc(N2CC(O)=C(c3nc4ccccc4c(=O)[nH]3)C2=N)cc1C | -14 | / | 1% | -2 | 0.9
O=C(O)CC(NCc1ccco1)C(=O)OCCCl (centres undefined) | -2 | / | -3% | 3 | 0.5
OC(COc1ccc2cc(Br)ccc2c1)CN1CCOCC1 (centres undefined) | -35 | -25 | -1% | 11 | 1.7
CN1CCN(CC(=O)Nc2cccc([N+](=O)[O-])c2)CC1 | 1 | / | -4% | 8 | /
COc1ccc(C(O)c2nc3ccccc3n2C(C)C)cc1 (centres undefined) | / | / | 4% | 7 | 0.5

(list continues)
SMILES | Arbovirus anti | YopH PTP inh | Mtb growth | Mtb betalactam | RecA intein inh | others
CCOC(=O)C1(CCOC)CCN(C(=O)c2sccc2C)CC1 | -4 | / | -10% | 4 | -1.7
Cc1nonc1NC(=O)OCCN1CCOC1=O | -1 | -59 | 3% | -2 | /
COc1ccc(NC(=O)CN2CCCCC2)cc1 | 11 | -1 | -2% | 1 | -1.5
Cc1cc(C)nc(N/N=C/c2ccncc2)n1 | / | / | / | 4 | -4.1
O=C(NC(=S)NNC(=O)c1cccs1)c1ccc(Br)o1 | -17 | -20 | ? | 96 | 1.0
Nc1nnnn1/N=C/c1ccccc1 | / | / | / | 0 | -1.4
Cc1ccc(NS(=O)(=O)c2c(C)[nH]c(=O)[nH]c2=O)cc1F | / | / | / | 3 | -4.0
COCCNC(=S)N(CCc1c(C)[nH]c2ccc(F)cc12)Cc1ccco1 | / | / | / | -14 | 3.9
CCN(CC(=O)Nc1ccc2c(c1)OCCO2)C(=O)c1cc(=O)[nH]c2ccccc12 | / | / | / | -6 | -0.6
CN(C)S(=O)(=O)c1cccc(COc2ccccc2C(=O)Nc2ccccc2)c1 | / | / | / | 6 | 4.2
CC1=CC2=NC(=O)/C(=C/c3coc4ccccc4c3=O)C(=N)N2O1 | / | / | 2% | 6 | -46
N#Cc1ccc(NCCc2ccccn2)c([N+](=O)[O-])c1 | / | / | -9% | 5 | 0.2
Cc1cc(C(=O)COC(=O)c2ccc(Cl)c(S(N)(=O)=O)c2)c(C)n1CC1CCCO1 (centres undefined) | / | / | / | -2 | -2.8
Cn1c(=O)cc(NCCc2ccccc2)[nH]c1=O | -25 | 2 | -3% | 9 | -1.1 | Arbovirus anti repeat=-19
COc1cc2ccc3c(CCN(C)C)cc(OC)c(OC)c3c2cc1OC | / | / | / | 4 | 1.8
CCCCN(CCCC)CCCNC(=O)C12CN(Cc3ccccc3)CC1C(c1cccc([N+](=O)[O-])c1)=NO2 (centres undefined) | -3 | -29 | -5% | -9 | -1.5
COc1ccc(/C=N/NC(=O)c2cc(C)on2)c2ccccc12 | 3 | -22 | -2% | 41 | -2.6
COC(=O)Cn1c2ccccc2c2nc(C)sc21 | 5 | -14 | -4% | / | 1.5
CCC(NC(=O)NCc1cccnc1)(C(F)(F)F)C(F)(F)F | -3 | -23 | -27% | 7 | 1.2
CC(=O)c1c(C(C)=O)c(C)n(-c2nc(-c3ccccc3)c(C)s2)c1C | 4 | 10 | 0% | 1 | 0.2 | Arbovirus anti repeat=5

Grouped by structure, the entries above containing a furan ring, fused or not.
SMILES | Arbovirus anti | YopH PTP inh | Mtb growth | Mtb betalactam | RecA intein inh | others
COc1ccc(Br)cc1C(=O)Nc1cccc(NC(=O)c2ccco2)c1 | -3 | -35 | 4% | 35 | 5.1
Cc1ccc(-c2nc3s/c(=C\c4ccco4)c(=O)n3n2)cc1 | 4 | -62 | -4% | 2 | 0.6
O=C(NCC(c1ccco1)N1CCc2ccccc21)c1cccc(F)c1 (centres undefined) | / | / | / | -4 | 8.9
O=C(O)CC(NCc1ccco1)C(=O)OCCCl (centres undefined) | -2 | / | -3% | 3 | 0.5
O=C(NC(=S)NNC(=O)c1cccs1)c1ccc(Br)o1 | -17 | -20 | ? | 96 | 1.0
COCCNC(=S)N(CCc1c(C)[nH]c2ccc(F)cc12)Cc1ccco1 | / | / | / | -14 | 3.9

Following part.
SMILES | Arbovirus anti | YopH PTP inh | Mtb growth | Mtb betalactam | RecA intein inh | others
O=C(NC1c2ccccc2-c2ccccc21)c1ccco1 | 3 | -56 | / | 79 | /
COc1ccc(N2CCN(C3CCCCC3NS(=O)(=O)c3ccc(Cl)cc3)CC2)cc1 (centres undefined) | / | / | / | 3 | 9.5
O=c1[nH]nc(-c2cccs2)c2ccccc12 | -5 | / | -4% | -7 | -0.4
Cc1cccc(OCC(=O)NCC(=O)N/N=C/c2ccc([N+](=O)[O-])cc2)c1 | 23 | / | -3% | 0 | -0.7
CCOC(=O)c1c(NC(=O)C2CC2)sc(C)c1CC | -2 | -25 | 8% | 1 | 1.1
CCOC(=O)C1=C(C)NC2=C(C(=O)CC(c3cccs3)C2)C1c1cccs1 (centres undefined) | -18 | 11 | -4% | -8 | /
COc1ccc(Nc2ccc([N+](=O)[O-])c3nonc23)c(OC)c1 | / | / | / | 96 | 13
COc1cc(OC)cc(C(=O)Oc2ccc(/C=N/Nc3nc4ccccc4s3)cc2OC)c1 | -4 | -8 | 1% | 0 | -0.2
CCN(CC)c1ccc(NC(=O)CN2CCN(CC(=O)Nc3ccccc3OC)CC2)cc1 | / | / | / | 84 | -2.2
CCc1ccc(NC(=O)C2CC(=O)N(C(C)C)C2)cc1 (centres undefined) | 8 | -9 | -10% | 7 | 1.5
C=C(Br)Cn1c(CCCC)nc2ccccc21 | 5 | 11 | 4% | 23 | 4.2
Cc1ccc(N=C2N=C(N)c3ccccc32)cc1C | / | -25 | 4% | 87 | /
Cc1ccc(NC(=O)NC2CCN(S(=O)(=O)c3ccc(F)cc3)CC2)cc1 | -12 | 3 | 2% | -1 | -1.0
COc1cccc(NC(=O)CN(C)C(=O)c2cc3c(s2)CCC3)c1 | / | / | / | 0 | -5.7
COP(C)(=O)c1c(C)nn(-c2ccccc2)c1C (centres undefined) | 10 | -5 | 1% | -10 | -2.1
COc1ccc(-c2[nH]ncc2/C=N/NC(=O)c2ccc(Br)cc2)c(OC)c1 | -16 | -28 | 4% | 10 | 1.2
CCN(C1CCCCC1)S(=O)(=O)c1cc2c3c(c1)CCN3C(=O)CC2 | / | / | / | 2 | 0.1
COc1ccc(OC)c(NC(=O)CN2C(=O)C3(OCCCO3)c3ccccc32)c1 | -1 | -17 | -2% | 3 | -5.3
O=C(NCC1CCCO1)c1cc(-c2ccccc2)nc2ccccc12 (centres undefined) | / | / | 10% | -7 | -2.7
O=C(c1ccc(CNS(=O)(=O)c2ccc(Br)cc2)cc1)N1CCCCCC1 | / | / | / | 0 | 2.4
NC(=O)c1c(NC(=O)C2CCCO2)sc2c1CCCC2 (centres undefined) | -8 | -18 | -1% | -2 | -3.4
CC(=O)Nc1ccccc1C(=O)N1CCN(c2cccc(C)c2C)CC1 | -3 | / | -4% | -3 | -1.4
